# High-throughput results deposited in PubChem BioAssay by Broad Institute.
# YB-1 expr inh: YB-1 expression inhibition | 30,000 compounds, 0.37% hits | U2OS, qRT-PCR YB-1 vs CDIP delta delta Cp, 16 h; stronger effect = higher value; zero = DMSO, each unit about twofold | delta delta Cp (YB-1 minus CDIP) (concentration not given with the values);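 active means delta delta Cp rounded down to an integer at or above 3, about 3 SD of DMSO wells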;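 further: higher means less YB-1 transcript or more CDIP transcript relative to DMSO; stock transfer was 100 nL into about 100 µL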
# PD-1 reverse act: activators reversing PD-1 mediated T-cell inhibition | primary human CD4 T cells, PD-L1 beads, CellTiter-Glo 96 h | activation, % (test concentration not listed) | 29,000 tested, under 10 active | AID 2316;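 active means replicate mean of 50% or more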;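 further: 0% = median vehicle wells and 100% = positive control; 100 nL library stock added to about 50 µL; numbers are from one replicate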
# MITF inhib: blocks MITF activity. inhibition, % (test concentration not listed). AID 2240. TRPM1 promoter luciferase, luminescence, 24 h. 37,000 compounds, 0.28% hits;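 active means most replicates at 85% or more, or half of them and the mean; inconclusive means half reach 85% but not the mean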;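 further: human melanocyte line stably carrying TRPM1 promoter luciferase reporter; 0% = vehicle wells and 100% = a positive control; the first replicate is given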
# Shh pathway inh: Sonic Hedgehog pathway inhibition; AID 2313; Shh-LIGHT2 Gli-luciferase reporter, 30 h; inhibition, % (no concentration beside the values); 22,000 compounds, 2.1% hits;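 active means replicate mean of 65% or more; inconclusive means mean lower but half the replicates past it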;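 further: pathway switched on by Shh-conditioned medium diluted 1 in 25 in low serum; 100 nL library stock added to about 40 µL; 0% = median of neutral wells and 100% = positive control level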
# The depositor's hits bear a star; ? = inconclusive; / = no result given.
compound	YB-1 expr inh	PD-1 reverse act	MITF inhib	Shh pathway inh
COc1ccc(S(=O)(=O)Nc2ccc3c(c2)C(=O)N([C@H](C)CO)C[C@H](C)[C@@H](CN(C)S(=O)(=O)c2cccs2)OCCCC[C@@H](C)O3)cc1	-0.47	/	22	/
COc1ccc(NC(=O)Nc2ccc3c(c2)C(=O)N([C@H](C)CO)C[C@@H](C)[C@H](CN(C)Cc2ccncc2)O3)cc1	0.083	-0.7	-2	/
COc1ccc(S(=O)(=O)N(C)C[C@@H]2Oc3ccc(NC(=O)CCC(F)(F)F)cc3C(=O)N([C@@H](C)CO)C[C@H]2C)cc1	0.23	0.1	-1	2
COc1ccc(NC(=O)Nc2cccc3c2O[C@@H](CN(C)C(=O)NC2CCCCC2)[C@H](C)CN([C@@H](C)CO)C3=O)cc1	0.12	1.3	-2	-14
Cc1ccc(S(=O)(=O)Nc2ccc3c(c2)CC(=O)N([C@@H](C)CO)C[C@H](C)[C@@H](CN(C)S(C)(=O)=O)O3)cc1	0.29	0.6	-6	-37
C[C@H]1CN([C@@H](C)CO)C(=O)c2cccc(NC(=O)c3ccncc3)c2O[C@@H]1CN(C)Cc1ccc(C(F)(F)F)cc1	-0.11	/	-12	?
C[C@@H]1CN([C@H](C)CO)C(=O)Cc2cc(NC(=O)CCC(F)(F)F)ccc2O[C@H]1CN(C)Cc1ccc(Cl)c(Cl)c1	-0.26	/	-8	-16
C[C@H](CO)N1C[C@H](C)[C@H](CN(C)Cc2ccc(-c3ccccc3)cc2)Oc2ccc(NC(=O)Cn3cnnn3)cc2CC1=O	0.031	/	4	-40
C[C@@H]1CN([C@@H](C)CO)C(=O)c2cc(NS(=O)(=O)c3ccc(F)cc3)ccc2O[C@H]1CN(C)Cc1ccccc1	0.21	0.8	-7	/
CSc1ccc(S(=O)(=O)NCc2ccccn2)cc1	/	-1.4	-20	/
N#C/C(=C\Nc1cccc(Cl)c1)S(=O)(=O)c1ccc(Cl)cc1	-0.35	-0.8	31	?
Cc1ccc(S(=O)(=O)N(C)C[C@H]2Oc3ccc(NS(C)(=O)=O)cc3C(=O)N([C@H](C)CO)C[C@H]2C)cc1	-0.15	1.1	-2	/
CCCCNc1cc(C(=O)O)cc(S(N)(=O)=O)c1Oc1ccccc1	-0.067	4.2	-12	-37
Cc1cc(C(=O)Nc2cccc3c2O[C@@H](CN(C)Cc2ccc(Cl)c(Cl)c2)[C@@H](C)CN([C@H](C)CO)C3=O)n(C)n1	0.38	-6.2	26	49
CCOC(=O)c1cc(C#N)c(N2CCC(C(=O)OCC)CC2)nc1C(F)(F)F	0.035	4.7	1	0
C[C@H](CO)N1C[C@H](C)[C@H](CN(C)Cc2ccc(C(=O)O)cc2)Oc2ccc(NC(=O)Nc3ccc(C(F)(F)F)cc3)cc2CC1=O	0.028	2.0	-5	7
Cc1cc(OCC(=O)Nc2ccc3oc(-c4ccncc4)nc3c2)cc(C)c1Cl	/	-6.4	0	/
COc1ccc(NC(=O)c2ccccc2NC(=O)COc2cccc(OC)c2)cc1	/	0.2	-21	/
COc1ccc(NC(=O)N(C)C[C@@H]2Oc3ccc(NC(=O)NC(C)C)cc3C(=O)N([C@@H](C)CO)C[C@@H]2C)cc1	-0.22	-0.5	-8	-22
CS/C(N)=N/C(N)=Nc1ccc(Cl)cc1	/	0.1	10	5
C[C@H](CO)N1C[C@H](C)[C@@H](CN(C)S(=O)(=O)c2ccc(F)cc2)Oc2c(NC(=O)C3CCOCC3)cccc2C1=O	-0.022	1.5	-7	-27
Cc1noc(C)c1NC(=O)Nc1ccc2c(c1)CC(=O)N([C@@H](C)CO)C[C@@H](C)[C@@H](CN(C)Cc1ccc(-c3ccccc3)cc1)O2	-0.2	-4.9	2	9
Cc1ccc(C)c(NC(=O)CSc2n[nH]c(-c3ccccc3)n2)c1	/	-2.7	23	/
O=C(c1ccccc1Cl)N1CCN(c2ccc([N+](=O)[O-])c(NCc3cccnc3)c2)CC1	/	-2.4	2	/
CC(=O)n1c(O)c(/C=C2/C=c3ccc(C)cc3=NC2=O)sc1=N	-0.0043	1.2	4	-21
CCOc1ccccc1-c1nnc(SCC(=O)Nc2ccc(I)cc2)o1	/	-3.1	26	/
Cc1cc(N)n(-c2ccc(Oc3ccccc3)cc2S(=O)(=O)O)n1	/	2.7	7	/
Cc1ncc2ccccc2c1C#N	-0.94	3.7	-24	-34
C[C@H]1CN([C@@H](C)CO)C(=O)Cc2cc(N(C)C)ccc2O[C@@H]1CN(C)Cc1ccc(C(F)(F)F)cc1	-0.36	-3.4	-4	3
Cc1ccc(S(=O)(=O)NC2c3cccc4cccc(c34)C2Sc2nnnn2-c2ccccc2)cc1 (stereo unspecified)	/	2.8	23	/
C[C@H]1CN([C@@H](C)CO)C(=O)c2cc(NC(=O)Nc3ccc(C(F)(F)F)cc3)ccc2O[C@H]1CN(C)CC1CCCCC1	0.34	-10	9	44
C[C@@H]1CN([C@H](C)CO)C(=O)c2cccc(NC(=O)C3CCOCC3)c2O[C@@H]1CN(C)C(=O)Nc1cccc2ccccc12	-0.052	1.0	0	-19
C[C@@H]1CN([C@H](C)CO)C(=O)Cc2cc(NC(=O)Nc3ccc(F)cc3)ccc2O[C@H]1CN(C)Cc1ccccc1	-0.21	/	5	-6
COc1ccc(NC(=O)Nc2ccc3c(c2)C(=O)N([C@H](C)CO)C[C@H](C)[C@@H](CN(C)S(=O)(=O)c2ccc(C)cc2)O3)cc1	-0.22	-0.5	-8	-6
C[C@@H]1CN([C@H](C)CO)C(=O)c2cc(NC(=O)C3CC3)ccc2O[C@H]1CN(C)Cc1ccc2c(c1)OCO2	-0.13	0.6	2	/
Cc1ccc(S(=O)(=O)N=S(Cc2ccccc2)Cc2ccccc2)cc1	-0.078	1.6	22	-5
Cn1c(SCC(=O)Nc2ccc(Oc3ccccc3)cc2)nnc1-c1ccc([N+](=O)[O-])cc1	/	-0.3	23	/
CN(CC(=O)Nc1ccc(Br)cc1F)S(=O)(=O)c1ccc(F)cc1	/	0.2	-5	/
COc1ccc(NC(=O)Nc2ccc3c(c2)C(=O)N([C@@H](C)CO)C[C@@H](C)[C@H](CN(C)Cc2ccc(Oc4ccccc4)cc2)O3)cc1	0.34	/	2	-14
CC(=O)c1cccc(NC(=O)CN(C)S(=O)(=O)c2ccc(F)cc2)c1	/	0.7	2	/
CC(C)NC(=O)Nc1ccc2c(c1)CC(=O)N([C@H](C)CO)C[C@H](C)[C@H](CN(C)S(=O)(=O)c1cccs1)O2	0.011	/	-8	-1
CC(C)NC(=O)Nc1ccc2c(c1)CC(=O)N([C@@H](C)CO)C[C@@H](C)[C@@H](CN(C)Cc1ccncc1)O2	-0.12	0.2	-4	8
COc1ccc(NC(=O)Nc2cccc3c2O[C@H](CN(C)Cc2ccncc2)[C@@H](C)CN([C@H](C)CO)C3=O)cc1	-0.059	/	-4	-13
C[C@@H]1CN([C@H](C)CO)C(=O)c2cc(NC(=O)CCN3CCOCC3)ccc2O[C@H]1CN(C)Cc1ccc(Cl)c(Cl)c1	0.4	0.3	-9	19
CC(=O)c1cccc(NC(=O)C(C)N(c2ccc(C)cc2)S(C)(=O)=O)c1 (stereo unspecified)	/	0.0	1	/
C[C@@H]1CN([C@H](C)CO)C(=O)Cc2cc(NS(C)(=O)=O)ccc2O[C@@H]1CN(C)S(=O)(=O)c1cn(C)cn1	0.11	3.4	0	-40
COc1ccc(NC(=O)CSc2nc3c(cc2C#N)CCCCC3)cc1OC	/	-1.2	14	/
C[C@@H]1CN([C@@H](C)CO)C(=O)Cc2cc(NC(=O)CCCCCC(=O)Nc3ccccc3N)ccc2O[C@@H]1CN(C)S(=O)(=O)c1ccccc1	-0.3	0.8	-6	/
C[C@@H]1CN([C@@H](C)CO)C(=O)c2cccc(NC(=O)NC3CCCCC3)c2O[C@@H]1CN(C)Cc1ccc(C(=O)Nc2ccccc2N)cc1	-0.29	-3.4	44	/
CS(=O)(=O)N(CC(=O)Nc1ccccc1Br)Cc1ccccc1	/	2.7	2	/
Cc1ccc(S(=O)(=O)Nc2cccc3c2O[C@H](CN(C)C(=O)Nc2ccccc2)[C@H](C)CN([C@H](C)CO)C3=O)cc1	-0.4	-0.8	-6	-10
C[C@@H]1CN([C@H](C)CO)C(=O)c2cccc(NC(=O)Nc3ccc4c(c3)OCO4)c2O[C@@H]1CN(C)Cc1ccc2c(c1)OCO2	-0.061	/	-20	-34
COc1ccc(NC(=O)Nc2cccc3c2O[C@H](CN(C)Cc2ccccc2)[C@@H](C)CN([C@@H](C)CO)C3=O)cc1	3.6*	-2.0	-15	-32
Cc1c(C(=O)Nc2sc3c(c2C(=O)NC2CCS(=O)(=O)C2)CCCC3)oc2ccccc12 (stereo unspecified)	/	2.4	22	/
C[C@H]1CN([C@@H](C)CO)C(=O)Cc2cc(NC(=O)Nc3cccc4ccccc34)ccc2O[C@H]1CN(C)C	0.26	-1.2	1	-3
C[C@@H]1CN([C@H](C)CO)C(=O)Cc2cc(NC(=O)Cc3ccccc3)ccc2O[C@@H]1CN(C)CC1CC1	-0.22	0.5	-3	/
C[C@@H]1CN([C@H](C)CO)C(=O)Cc2cc(NS(C)(=O)=O)ccc2O[C@@H]1CN(C)Cc1ccc(C(F)(F)F)cc1	-0.033	-7.0	-14	36
O=c1cc(Nc2ccc(Cl)cc2)nc(COc2ccccc2)[nH]1	-0.19	0.8	-33	-51
C[C@H](CO)N1C[C@H](C)[C@H](CN(C)S(=O)(=O)c2cn(C)cn2)Oc2ccc(NC(=O)Nc3cccc4ccccc34)cc2C1=O	-0.33	0.4	-16	-5
Cc1noc(C)c1NC(=O)Nc1ccc2c(c1)C(=O)N([C@@H](C)CO)C[C@H](C)[C@@H](CN(C)Cc1ccc(Oc3ccccc3)cc1)O2	-0.038	-4.8	-1	/

# (further entries)
compound	YB-1 expr inh	PD-1 reverse act	MITF inhib	Shh pathway inh
C[C@H](CO)N1C[C@H](C)[C@H](CN(C)CC2CCCCC2)Oc2c(NS(=O)(=O)c3cccs3)cccc2C1=O	-0.094	-0.8	-11	17
C[C@H](CO)N1C[C@H](C)[C@@H](CN(C)Cc2ccc(C(=O)O)cc2)Oc2c(NC(=O)c3ccncc3)cccc2C1=O	0.39	1.4	6	-33
Cc1noc(C)c1NC(=O)Nc1ccc2c(c1)C(=O)N([C@@H](C)CO)C[C@@H](C)[C@H](CN(C)Cc1ccc(C(=O)O)cc1)O2	0.034	1.8	-2	11
O=C(CCc1ccc(O)cc1)CC(CCc1ccc(O)cc1)O[C@@H]1OC[C@@H](O)[C@H](O)[C@H]1O (stereo partly specified)	-0.36	-2.4	-14	11
C[C@H](CO)N1C[C@H](C)[C@@H](CN(C)Cc2ccc(C(F)(F)F)cc2)Oc2ccc(NS(C)(=O)=O)cc2C1=O	-0.077	0.2	-3	-19
C[C@@H]1CN([C@@H](C)CO)C(=O)c2cc(NC(=O)Cc3cn(C)c4ccccc34)ccc2O[C@H]1CN(C)CC1CCCCC1	-0.38	/	1	/
COc1ccc(C(=O)CSc2nnc(-c3ccco3)n2C)cc1	/	0.7	-24	/
C[C@H]1CN([C@@H](C)CO)C(=O)c2cccc(NC(=O)Nc3ccc4c(c3)OCO4)c2O[C@H]1CN(C)C(=O)NC1CCCCC1	-0.36	-2.2	-14	-12
C[C@H]1CN([C@@H](C)CO)C(=O)c2cc(NC(=O)Nc3cccc4ccccc34)ccc2O[C@@H]1CN(C)Cc1ccccc1	0.094	-3.2	-1	23
C[C@@H]1CN([C@H](C)CO)C(=O)Cc2cc(NC(=O)CCCCCC(=O)Nc3ccccc3N)ccc2O[C@@H]1CN(C)Cc1ccncc1	-0.24	0.3	4	/

# As a short view, some entries already given:
compound	YB-1 expr inh	PD-1 reverse act	MITF inhib	Shh pathway inh
C[C@H](CO)N1C[C@H](C)[C@@H](CN(C)Cc2ccc(C(=O)O)cc2)Oc2c(NC(=O)c3ccncc3)cccc2C1=O	0.39	1.4	6	-33
Cc1noc(C)c1NC(=O)Nc1ccc2c(c1)C(=O)N([C@@H](C)CO)C[C@@H](C)[C@H](CN(C)Cc1ccc(C(=O)O)cc1)O2	0.034	1.8	-2	11
O=C(CCc1ccc(O)cc1)CC(CCc1ccc(O)cc1)O[C@@H]1OC[C@@H](O)[C@H](O)[C@H]1O (stereo partly specified)	-0.36	-2.4	-14	11
C[C@H](CO)N1C[C@H](C)[C@@H](CN(C)Cc2ccc(C(F)(F)F)cc2)Oc2ccc(NS(C)(=O)=O)cc2C1=O	-0.077	0.2	-3	-19
C[C@@H]1CN([C@@H](C)CO)C(=O)c2cc(NC(=O)Cc3cn(C)c4ccccc34)ccc2O[C@H]1CN(C)CC1CCCCC1	-0.38	/	1	/
COc1ccc(C(=O)CSc2nnc(-c3ccco3)n2C)cc1	/	0.7	-24	/

# An excerpt; the hit share may differ from the screen's.
